# Calb biofilm kill: mixtures killing C. albicans biofilm. C. albicans biofilm persisters + clotrimazole, fluorescence viability; primary screen in compound mixtures of four per well. inhibition, % at 7.6 µM. 120,000 tested, 0.02% active. AID 1242;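 active = inhibition above 30.3% in the primary screen of four-compound pools, then above 30% when the compound was retested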;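 note: compounds exposed to preformed 24 h biofilms for 48 h; the number belongs to the whole pool; some results filed as inactive read as strong as hits; inactives centre near 12; 0% = biofilm with clotrimazole alone and 100% = kill control; retested singly at about 60 µM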
#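 System: C. albicans CAF4-2 wild-type biofilms; Medium: RPMI/MOPS medium, pH 7.0; Reagent: Clotrimazole, 50 µg/mL; Times: biofilm formation 24 h, compound exposure 48 h, 37 °C; Detection: 2-h Alamar Blue fluorescence, 535/590 nm excitation/emission; Evaluation: percent inhibition of biofilm viability.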
# * = called active by the depositor. Some of the compounds tested (hit frequency here may not be typical).
SMILES,Calb biofilm kill
Cc1cccn2cc(CSc3nnc(Nc4ccc(C(C)C)cc4)s3)nc12,11.8
O=C(Nc1nnc(COc2ccc(F)cc2)s1)c1ccco1,19.0
CC(=O)/C(C#N)=C1\NC(=O)C(Cc2ccc(C)c(Cl)c2)S1 (configuration not stated),5.0
Cc1nccn1-c1c([N+](=O)[O-])c(=O)n(C)c2ccccc12,9.2
Cc1nc(N)nc(N/N=C/c2ccccc2)n1,11.7
Nc1nc(-c2ccc3c(c2)CCO3)cs1,3.2
COc1ccccc1-n1cc(-c2ccc([N+](=O)[O-])cc2)[nH]c1=S,14.4
COP1(=O)C=C[C@H](N(Cc2ccccc2)S(=O)(=O)c2ccccc2[N+](=O)[O-])[C@@H](C)O1 (some centres not stated),15.6
CCn1cc(C(=O)N2CC(C)CC(C)C2)c(=O)c2cc(S(=O)(=O)N(C)C)ccc21 (configuration not stated),11.7
COCCN(C(=O)c1ccccc1F)c1c(N)n(Cc2ccccc2)c(=O)[nH]c1=O,-11.4
CCOc1ccccc1NC(=O)c1cccc(NC(=O)C(C)C)c1,11.1
CCc1cccc(C)c1NC(=O)C1CCN(C(=O)c2ccc([N+](=O)[O-])cc2)CC1,7.8
O=C(NCC1CCCO1)c1ccc2c3n(nc2c1)-c1ccccc1CO3 (configuration not stated),1.1
O=C1NC(=O)/C(=C/c2ccc(OS(=O)(=O)c3ccc(F)cc3F)cc2)N1,9.9
O=S(=O)(Nc1ncccn1)c1ccc(NS(=O)(=O)c2cc(Cl)ccc2Cl)cc1,15.7
CCc1ccccc1NC(=O)CC1SCCNC1=O (configuration not stated),15.1
Cc1cc(Nc2ccc(F)c(Cl)c2)n2nc(C)nc2n1,20.9
O=S(=O)(c1ccc(NC(=S)Nc2ccc3c(c2)OCO3)cc1)N1CCOCC1,15.7
O=[N+]([O-])c1ccc(-c2csc(N/N=C/c3cccnc3)n2)cc1,7.8
CC1CCCCN1S(=O)(=O)c1cn(C)c(=O)n(C)c1=O (configuration not stated),4.4
O=C(Cc1cccc2ccccc12)N1CCN(c2ncccn2)CC1,10.8
C/C(=N/NC(=O)CNC(=O)c1cccnc1)c1ccco1,7.7
CCOC(=O)/C=C1\SCC(=O)N1CC(=O)NCCc1ccc(F)cc1,1.8
COc1ccc(NC(=O)c2nc(C)n(-c3ccc([N+](=O)[O-])cc3)n2)cc1,-4.4
COc1ccc(C(=O)OCn2nnc3ccccc3c2=O)cc1[N+](=O)[O-],8.5
CCCOC(=O)c1ccc(Oc2cn[nH]c2-c2ccc(O)cc2O)cc1,16.9
C=C(C)C(=O)Nc1cccnc1Oc1ccc(F)cc1,9.9
C=CCNC(=O)NC(=O)COC(=O)CNS(=O)(=O)c1ccc(F)c(F)c1F,12.6
COc1ccc(CCNC(=O)NC2CCCCC2)cc1,13.3
CCc1ccc(OCC(=O)N/N=C(\C)c2ccccc2OC(F)F)cc1,5.7
O=C(CN1CCN(c2ccc(C(F)(F)F)cn2)CC1)Nc1ccc2c(c1)OCO2,8.3
O=C(c1ccc(Cn2c(=S)[nH]c3ccc(N4CCOCC4)cc3c2=O)cc1)N1CCC(N2CCCCC2)CC1,9.2
O=C(Nc1ccc(NC(=O)c2ccco2)c(Cl)c1)c1ccccc1,20.2
CC(C)(C)c1ccc(/C=C/C(=O)c2ccc(NC3=NCCCS3)cc2)cc1,18.3
CCn1c(=NC(=O)c2ccc(S(=O)(=O)N(C)C)cc2)sc2cccc(OC)c21,13.8
CN(CC(=O)N1CCN(Cc2ccccc2)CC1)S(=O)(=O)c1cccc2nsnc12,14.2
CC(C)[C@@H](C(=O)N1CCN(C(=O)OC(C)(C)C)CC1)n1cc(CCO)nn1,16.5
Cc1cc(C(=O)N/N=C/c2c(C)nn(-c3ccccc3)c2Cl)n[nH]1,15.2
COc1ccccc1C(=O)NC1CCN(C(=S)NCCc2ccccc2)CC1,13.6
O=C(NNc1nc2c(F)cc(F)cc2s1)C1=COCCO1,12.4
Cc1ccc(-n2c(-c3ccccc3)c[n+]3c2CCC3)cc1,4.7
Cc1cc(C)c(C(=O)COC(=O)c2cc([N+](=O)[O-])ccc2NCCO)cc1C,12.4
O=C(COC(=O)c1ccc(Cl)cc1O)NCCN1C(=O)CSC1=O,17.6
CC(C)c1ccc(NNC(=O)C2CCC2)cc1,9.9
Cn1cnc2c(N/N=C/c3cccs3)ncnc21,7.4
O=C(N/N=C\c1cc(Br)cs1)c1ccncc1,5.5
Cc1nc2c(=O)n(C)c(=O)n(C)c2nc1Cl,15.5
O=[N+]([O-])c1ccc2nc(CCCO)[nH]c2c1,3.9
CN1CCN(CCCN(Cc2ccco2)C(=S)Nc2ccc(Cl)cc2)CC1,13.3
O=C(Cn1cc(S(=O)(=O)N2CCN(c3ccccc3F)CC2)c2ccccc2c1=O)NCCCN1CCCCCC1,3.8
COc1ccc(-c2ccc(/C=N/N3C(=O)C4C5C=CC(C6CC56)C4C3=O)o2)c([N+](=O)[O-])c1 (configuration not stated),26.6
Cc1cccc(Nc2ccc(NCc3ccccc3)nn2)c1,13.0
Cc1ccc(S(=O)(=O)/N=C(\N)Nc2nc(C)c3ccccc3n2)cc1,12.0
c1ccc(-c2cc3c(N4CCN(c5ncccn5)CC4)ncnc3s2)cc1,1.7
CCCn1nc(C(=O)Nc2nc3ccccc3[nH]2)c2ccccc2c1=O,7.1
O=C(NCc1ccccn1)[C@@H]1C[C@H]1[C@@H](NP(=O)(c1ccccc1)c1ccccc1)c1ccccc1,15.0
Cc1ccc(-n2nnc(-c3cccnc3Cl)n2)cc1,20.8
O=C(CN1C(=O)NC2NC(=O)NC21)NN=C1CCCC1 (configuration not stated),21.3
Cc1ccc(Oc2ncccc2C(=O)NCC(=O)O)cc1,20.9
CC(C)CN(C(=O)COC(=O)c1ccc(-c2ccccc2)cc1)C1CCS(=O)(=O)C1 (configuration not stated),11.0

# The closing 2 entries of the part above open the next one:
SMILES,Calb biofilm kill
Cc1ccc(Oc2ncccc2C(=O)NCC(=O)O)cc1,20.9
CC(C)CN(C(=O)COC(=O)c1ccc(-c2ccccc2)cc1)C1CCS(=O)(=O)C1 (configuration not stated),11.0
CC(C)CN1CCN(Cc2cccc3nccnc23)CC1CCO (configuration not stated),2.3
CCOC(=O)c1[nH]c2ccc(Br)cc2c1NC(=O)CCN1CCCC(C)C1 (configuration not stated),7.5
Cc1ccccc1NC(=O)c1ccc(Cl)c(NC(=O)c2ccncc2)c1,6.2
CCC(=O)NC(Cc1ccccc1)c1ccc2c(c1)OCCCO2 (configuration not stated),15.1
CN(C)S(=O)(=O)c1cccc(NC(=O)/C=C/c2ccccc2[N+](=O)[O-])c1,11.1
C/C(=N/NC(=O)C(=O)N/N=C(/C)c1ccccc1)c1ccccc1,4.8
CCCC(=O)C1=C(O)C(C(=O)OC)C(C)(C)CC1=Nc1cccc2ccccc12 (configuration not stated),7.8
Cc1cc(C)cc(NC(=O)CSc2nnc(CN3CCOCC3)n2C)c1,20.1
O=S(=O)(NC1CCCCC1Nc1ccccc1)c1ccccc1 (configuration not stated),20.8
COc1ccccc1NC(=S)NCc1ccc(S(N)(=O)=O)cc1,3.7
O=C(NN1CC(=O)N(c2cc(Cl)cc(Cl)c2)CC1=O)c1cccs1,22.5
O=C(NNC(=O)C1CCC(C(=O)NNC(=O)c2cccs2)CC1)c1cccs1 (configuration not stated),9.1
COCCNC(=O)c1nc2c(nnn2Cc2cc(C)ccc2C)c(=O)[nH]1,9.9
COc1ccc(C2=NN(Cc3c(F)cccc3Cl)C(=O)CC2)cc1,5.8
O=[N+]([O-])c1cccc(/C=C/c2ccccn2)c1,18.4
COc1cc(CC(=O)Nc2ccc3nc(C)sc3c2)cc(OC)c1OC,-4.2
CCCCC1=CC2=CC(=O)C(C)(OC(=O)CC)C(=O)C2=CN1c1ccc(OC)cc1 (configuration not stated),11.9
COC1OC(CO)C(O)C(O)C1O (configuration not stated),27.0
COc1ccc(-c2nc3ccccc3c(=O)n2CCOc2ccccc2C)cc1,17.3
Cc1ccc(S(=O)(=O)NC(=O)c2ccc(-c3ccc(C)c4ccccc34)o2)cc1,13.0
NC(=O)C1CCN(C(=S)c2ccc(-c3ccc(Br)cc3)o2)CC1,21.9
CCOC(CCn1c(SCc2cccc([N+](=O)[O-])c2)nc2ccccc2c1=O)OCC,15.6
O=C1OC(/C(=C\Nc2ccccc2)[N+](=O)[O-])c2ccccc21 (configuration not stated),24.7
O=C(COc1ncnc2sccc12)N1CCN(C(=O)c2ccco2)CC1,4.7
CC(C)c1ccc(NC(=O)COC(=O)/C=C/c2cccc(Br)c2)cc1,29.7
COc1cc2ncnc(NCc3ccccc3Cl)c2cc1OC,9.7
C=CCNc1ccc(N2C(=O)C3CCC(C)CC3C2=O)cc1[N+](=O)[O-] (configuration not stated),18.1
Cc1ccc(C(NC(=O)N2CCCC2)C(Cl)Cl)cc1F (configuration not stated),8.6
Cc1cc(C)nc(N2CCCC(C(=O)Nc3nnc(C(C)(C)C)s3)C2)n1 (configuration not stated),14.1
Cc1cc2c(NCC(C)O)ncnc2s1 (configuration not stated),9.7
N/C(=N\OC(=O)Cc1ccc(Cl)cc1)c1ccncc1,3.2
COc1ccc(CSc2nncn2C)cc1F,4.3
CC(=O)Nc1ccc(S(C)(=O)=O)c(C)c1,16.3
CCc1ccccc1NNC(=O)c1cc(C)on1,5.1
Cc1cc(Cl)cc(Br)c1OCCCNCC(C)O (configuration not stated),14.7
CCc1cc(-c2n[nH]c(C)c2-c2nc3ccccc3s2)c(O)cc1OCC(=O)NN,13.2
O=c1c(-c2ccc(Br)cc2)[n+]([O-])c2ccccc2n1OCc1ccccc1,29.2
CCS(=O)(=O)c1ccc(N=Nc2ccc(O)c3ncccc23)c(OC)c1,6.5
COc1ccccc1C(=O)N=Nc1c(O)[nH]c2ccc([N+](=O)[O-])cc12,-3.6
CCOC(=O)C1CCCN(CCC(=O)Nc2cccc(C)c2)C1 (configuration not stated),-3.6
Cc1nnc2c(NC3CCCC3)nc3ccccc3n12,6.6
COc1ccccc1C(=O)NCC(=O)NC1CCCc2ccccc21 (configuration not stated),10.4
Cc1ccsc1/C=N/n1c(COc2ccccc2)n[nH]c1=S,10.0
CCCCCCCCOC(=O)c1ccc(N)cc1,10.7
CC(C)(C)n1nc2c(c1NC(=O)Cc1cccc3ccccc13)CS(=O)(=O)C2,5.2
COc1cccc(O)c1CN1CCCC(C(=O)c2cccc(C(F)(F)F)c2)C1 (configuration not stated),13.3
CC(C)(C)S(=O)(=O)/C(C#N)=N/Nc1ccc(Cl)cc1,12.2
Cc1cc(NC(=O)c2cccs2)n(-c2nc3ccccc3[nH]2)n1,15.3
Cc1cc(C)c(NC(=O)CN)c(C)c1,-1.0
CCOc1ccc(NC(=O)NC(C)CC)cc1 (configuration not stated),2.2
O=Cc1ccc(Oc2ncccn2)cc1,20.5
CC1CCC2C(=O)N(c3ccc(S(=O)(=O)c4ccccc4)cc3)C(=O)C2C1 (configuration not stated),11.3
Cc1cc(C)cc(N(CC(=O)O)S(=O)(=O)c2c(C)[nH]c(=O)[nH]c2=O)c1,12.9
Cc1nc(SC2CC(=O)N(c3ccccc3)C2=O)n[nH]1 (configuration not stated),6.0
OC1(c2cccc(C(F)(F)F)c2)CCN(Cc2nnnn2CCc2ccccc2)CC1,11.8
O=C(NCCc1csc(-c2ccccc2)n1)c1c(F)cccc1Cl,16.0
O=C(CN1CCN(c2cccc(Cl)n2)CC1)N1CC(O)CO1 (configuration not stated),-5.9
Cc1ccc2nc(SCC(=O)N/N=C/c3ccco3)cc(C)c2c1,17.3
O=C(CCCSc1nc2ccccc2c(=O)[nH]1)c1ccccc1,3.4
O=S(=O)(NN1CCOCC1)c1ccc(Cl)s1,6.7
# (continued)
SMILES,Calb biofilm kill
CSc1nc(SCC(=O)O)c2sc3nc(-c4ccccc4)c4c(c3c2n1)CCC4,14.6
Cc1oc(C)c(C(=O)O)c1C(=O)O,4.8
COc1ccc(C(=O)Nn2c(C)nnc2-n2nc(C)cc2C)cc1OC,20.5
Cc1cccc(/C=N/NC(=O)Cn2nnnc2N)n1,13.7
CCC(=O)Nc1ccc2c(c1)ncn2-c1ccc(OC)cc1,13.3
O=C(NCCNc1ccc([N+](=O)[O-])cc1)c1cccc(Br)c1,14.9
OCC1(CO)COC2(CCCC2)N1,12.8

# An excerpt from above in order of SMILES length, smallest number first.
SMILES,Calb biofilm kill
OCC1(CO)COC2(CCCC2)N1,12.8
O=Cc1ccc(Oc2ncccn2)cc1,20.5
Cc1oc(C)c(C(=O)O)c1C(=O)O,4.8
CCOc1ccc(NC(=O)NC(C)CC)cc1 (configuration not stated),2.2
O=S(=O)(NN1CCOCC1)c1ccc(Cl)s1,6.7
Cc1cccc(/C=N/NC(=O)Cn2nnnc2N)n1,13.7
CCC(=O)Nc1ccc2c(c1)ncn2-c1ccc(OC)cc1,13.3
Cc1nc(SC2CC(=O)N(c3ccccc3)C2=O)n[nH]1 (configuration not stated),6.0
O=C(CCCSc1nc2ccccc2c(=O)[nH]1)c1ccccc1,3.4
O=C(NCCc1csc(-c2ccccc2)n1)c1c(F)cccc1Cl,16.0
Cc1ccc2nc(SCC(=O)N/N=C/c3ccco3)cc(C)c2c1,17.3
COc1ccc(C(=O)Nn2c(C)nnc2-n2nc(C)cc2C)cc1OC,20.5
O=C(NCCNc1ccc([N+](=O)[O-])cc1)c1cccc(Br)c1,14.9
COc1cccc(O)c1CN1CCCC(C(=O)c2cccc(C(F)(F)F)c2)C1 (configuration not stated),13.3
OC1(c2cccc(C(F)(F)F)c2)CCN(Cc2nnnn2CCc2ccccc2)CC1,11.8
CC1CCC2C(=O)N(c3ccc(S(=O)(=O)c4ccccc4)cc3)C(=O)C2C1 (configuration not stated),11.3
Cc1cc(C)cc(N(CC(=O)O)S(=O)(=O)c2c(C)[nH]c(=O)[nH]c2=O)c1,12.9
